RE007 growth inh: less growth of the S. pombe RE007 Vpr strain; S. pombe RE007 Vpr strain, BacTiter-Glo ATP luminescence, 24 h; control for the full effect not named in the record; Potency, µM (titrated, usually from 92.2 µM), without a hit: at the top dose activity change, negative = less growth; 360,000 compounds, 0.21% hits; active = well fitted falling curve with a large enough effect; inconclusive = small, poorly fitted or top-dose-only effect; inactive = no such curve, though single readings can be large or run the other way;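 note: % is set by controls: 0 for no effect and ±100 for the full control effect; nearly all actives have a fitted effect of over 50% in size; the assay follows cell death caused by Vpr and the record does not say whether a fall means rescue or toxicity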
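Fission yeast RE007 carrying one integrated HIV-1 vpr copy, seeded at OD 0.01 in PMG+AL medium with 23 nL pinned compound. Grown 24 h at 30 degrees; viability read by BacTiter-Glo luminescence after 5 min.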
Cruzain Triton: blocks cruzain activity in presence of Triton detergent | 200,000 compounds, 0.43% hits | Potency, µM, for inactives: max response, negative = inhibition, usual class: inhibitors | purified cruzain, Z-FR-AMC fluorescence, 0.01% Triton | P25779; active = well fitted curve in the direction sought with a large enough effect; inconclusive = small, poorly fitted or top-dose-only effect, or another doubt; inactive = no such curve, though single readings can be large; an effect the other way counts as inactive or inconclusive;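 note: plate controls were neutral wells for no effect and buffer without enzyme for full effect; nearly all actives have a fitted effect of over 40% in size; top concentration of the series not given in the record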
Target sequence (P25779 123-467 limits assumed): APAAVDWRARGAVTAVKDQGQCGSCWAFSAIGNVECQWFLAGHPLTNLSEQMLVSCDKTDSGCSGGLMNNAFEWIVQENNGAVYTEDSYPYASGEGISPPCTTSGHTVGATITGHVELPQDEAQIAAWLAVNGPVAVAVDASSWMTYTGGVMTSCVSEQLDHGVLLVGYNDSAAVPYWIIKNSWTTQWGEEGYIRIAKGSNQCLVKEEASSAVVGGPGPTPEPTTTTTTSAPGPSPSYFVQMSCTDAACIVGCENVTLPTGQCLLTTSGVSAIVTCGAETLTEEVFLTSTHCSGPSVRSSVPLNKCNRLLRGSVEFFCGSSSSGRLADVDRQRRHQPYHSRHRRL
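Purified cruzain (1.5 nM final) was preincubated with compounds for 15 min at room temperature in 100 mM sodium acetate pH 5.5, 5 mM DTT, 0.01% Triton X-100. Reaction started with 2 uM Z-FR-AMC; AMC fluorescence change over 60 s gave activity.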
Marburg entry inh: blocks Marburg virus binding to or entry into cells. Marburg virus pseudotyped entry inhibition, cell reporter; control for the full effect not named in the record; about a third of the inactives were read at about 46 µM. Potency, µM (doses to about 37.8 µM), for the others: at the highest dose activity change, negative = inhibition, hits mostly inhibitors. 300,000 compounds, 1.8% hits. AID 540276; active = well fitted inhibition curve with a large enough effect; inconclusive = small, poorly fitted or top-dose-only effect, or effect the other way; inactive = flat fitted curve, though single readings scatter; tested in HEK293 cells; about a fifth of its hits are not listed in these tables; note: % is set by controls: 0 for no effect and ±100 for the full control effect; luciferase read-out
NS1 function inh: influenza NS1 inhibition. S. cerevisiae slowed by influenza A NS1, growth recovery by OD600. Potency, µM (doses to about 46.1 µM), inactives show at the highest dose activity, positive = more growth. 270,000 compounds, 0.4% hits; note: actives are rising curves; nearly all actives have a fitted effect of over 50% in size
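Growth recovery, yeast-based: influenza A NS1 expressed in S. cerevisiae causes slow growth, and suppressors are detected by OD600. The parent strain without NS1 is used as positive control.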
SARS PLpro yeast: SARS-CoV PLP inhibition in yeast. S. cerevisiae expressing SARS-CoV PLpro, growth rescue; control for the full effect not named in the record. 330,000 compounds, 0.19% hits. Potency, µM (series often up to 32.9 µM), inactives show top-dose activity, positive = growth rescue. AID 485353; note: 0% is about no effect; nearly all actives have a fitted effect of over 55% in size; growth read by luminescence after 48 h
Cruzain inh noDet: cruzain (T. cruzi) inhibition without detergent | P25779 | purified cruzain, Z-FR-AMC fluorescence, no detergent | Potency, µM, inactives show max response, negative = inhibition, actives largely listed as inhibitors | 200,000 compounds, 2.3% hits; active = well fitted curve in the direction sought with a large enough effect; inconclusive = small, poorly fitted or top-dose-only effect, or another doubt; inactive = no such curve, though single readings can be large; an effect the other way counts as inactive or inconclusive;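 note: plate controls were enzyme without inhibitor for no effect and buffer without enzyme for full effect; nearly all actives have a fitted effect of over 40% in size; top concentration of the series not given in the record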
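Detergent-free condition (0.00005% Triton X-100) in acetate buffer pH 5.5 with DTT. 1.5 nM enzyme and compound were pre-mixed 15 min, then 2 uM Z-FR-AMC substrate added; reaction progress from fluorescence change between first and third reads (60 s).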
StopGo reporter: lowers the luciferase signal of an FMDV 2A StopGo reporter | human cells with a luciferase reporter of 2A StopGo recoding; control for the full effect not named in the record | Potency, µM (titrated, usually from 57.9 µM), without a hit: top-dose signal change, negative = less light | 410,000 compounds, 1.2% hits | AID 1159524; active = well fitted falling curve with a large enough effect; inconclusive = small, poorly fitted or top-dose-only effect; inactive = no such curve, though single readings can be large or run the other way; tested in HEK293T cells; note: % is set by controls: 0 for no effect and ±100 for the full control effect; nearly all actives have a fitted effect of over 45% in size; luciferase light after 4 h
Lassa entry inh: blocks Lassa virus binding to or entry into cells; Lassa virus pseudotype entry inhibition, cell reporter; control for the full effect not named in the record; Potency, µM (doses to about 37.9 µM), without a hit: top-dose activity change, negative = inhibition, usual class: inhibitors; 300,000 compounds, 1.2% hits; AID 540256; active means well fitted inhibition curve with a large enough effect; inconclusive means small, poorly fitted or top-dose-only effect, or effect the other way; inactive means flat fitted curve, though single readings scatter; tested in HEK293 cells; note: % is set by controls: 0 for no effect and ±100 for the full control effect; nearly all actives have a fitted effect of over 50% in size; luciferase read-out
The depositor's hits bear a star; & = joins results of further samples; [ ] = dose if it differs, or a comment. Unless noted, calls come from the whole dose curve; as a rule, active means well fitted rising curve with a large enough effect; inconclusive means small, poorly fitted or top-dose-only effect; inactive means no such curve, though single readings can be large or run the other way. Potency is the fitted concentration of half-maximal effect.

CC(C(=O)NC1C(=O)N2C(C(=O)O)=C(CSc3nnnn3C)CSC12)n1cc(Cl)cn1 (stereo not drawn) was read as RE007 growth inh 3%, Marburg entry inh 19%[46.1 µM], SARS PLpro yeast -1%, StopGo reporter -4% and Lassa entry inh 2%[46.1 µM].
CCOc1ccc(N(CC(=O)Nc2ccc(C)cc2)S(=O)(=O)c2c(C)[nH]c(=O)[nH]c2=O)cc1 was read as RE007 growth inh 0%, NS1 function inh -2%, SARS PLpro yeast 1% and StopGo reporter -19%.
For COc1ccc(-c2nc(CN3CCN(Cc4ccccc4)CC3)c(C)o2)cc1 the results were RE007 growth inh -15%, NS1 function inh 5%, SARS PLpro yeast -3% and StopGo reporter -14%.
`CCOC(=O)c1c(C)sc2c1N(C(=O)CCl)c1cc(Cl)ccc1S2` gave RE007 growth inh 5%, Cruzain Triton -3.5%, Marburg entry inh inconclusive, NS1 function inh -37%, SARS PLpro yeast -35%, Cruzain inh noDet -8%, StopGo reporter 10µM* and Lassa entry inh inconclusive.
`O=C(Nc1ccncc1)C1CCN(S(=O)(=O)c2ccccc2C(F)(F)F)CC1` gave RE007 growth inh -10%, Marburg entry inh inconclusive, NS1 function inh 17%, SARS PLpro yeast 3%, StopGo reporter inconclusive and Lassa entry inh -27%.
Screening Cc1cccc(Cn2c(=O)c3c(nc4n3CCCN4Cc3ccccc3)n(C)c2=O)c1 returned RE007 growth inh 6%, Cruzain Triton -3.5%, Marburg entry inh inconclusive, NS1 function inh -4%, SARS PLpro yeast 2%, Cruzain inh noDet 24%, StopGo reporter inconclusive and Lassa entry inh -32%.
Screening CCOc1ccc(NC2=CC(=O)C(=O)c3ccccc32)cc1 returned RE007 growth inh inconclusive, Marburg entry inh inconclusive, StopGo reporter 7% and Lassa entry inh inconclusive.
Screening CC(C)c1cc(C(=O)NCc2ccccc2)no1 returned Cruzain Triton -2.0%, Marburg entry inh inconclusive, Cruzain inh noDet -10%, StopGo reporter 51%[activator] and Lassa entry inh 12%[46.1 µM].
O=C(NCCCNC1CCCCC1)c1ccc(/C=N/O)nc1 was read as RE007 growth inh -20%, Cruzain Triton 4.1%, Marburg entry inh 15%, NS1 function inh -5%, SARS PLpro yeast -3%, Cruzain inh noDet -6%, StopGo reporter -5% and Lassa entry inh 30%.
CC(C)c1ccc(OCc2ccc(C(=O)N(C)C)o2)cc1 was read as RE007 growth inh 16%, Marburg entry inh inconclusive, NS1 function inh -34%, SARS PLpro yeast -6%, StopGo reporter -5% and Lassa entry inh inconclusive.
For CCOc1ccc(S(=O)(=O)N2CCC(C(=O)NCc3ccncc3)CC2)cc1 the results were RE007 growth inh 7%, Marburg entry inh -7%, NS1 function inh 2%, SARS PLpro yeast 1%, StopGo reporter -20% and Lassa entry inh 5%.
For CCCCc1nnc(NC(=O)CSc2nc(C)cc(=O)[nH]2)s1 the results were RE007 growth inh 1%, Cruzain Triton -4.2%, Marburg entry inh 1%, NS1 function inh -5%, SARS PLpro yeast 3%, Cruzain inh noDet 9%, StopGo reporter -4% and Lassa entry inh 10%.
For COCCNC(=O)Cn1ncc2ccsc2c1=O the results were RE007 growth inh 3%, Cruzain Triton 0.7%, NS1 function inh -1%, SARS PLpro yeast 0%, Cruzain inh noDet 5% and StopGo reporter -1%.
For Cc1ccccc1C(=O)Nc1c(C(=O)N2CCCC2)cnn1-c1ccccc1 the results were RE007 growth inh -6%, Cruzain Triton 2.9%, Marburg entry inh 1%, NS1 function inh -4%, SARS PLpro yeast 9%, Cruzain inh noDet 10% and Lassa entry inh 7%.
CCC(c1n[nH]c(=S)n1-c1ccccc1)N(C)C (stereo not drawn) was read as RE007 growth inh 10%, Cruzain Triton -1.4%, Marburg entry inh 12%, NS1 function inh -8%, SARS PLpro yeast -3%, Cruzain inh noDet 0%, StopGo reporter 0% and Lassa entry inh 0%.
For N#C/C(=C(/O)c1cc2ccccc2o1)c1nc2ccccc2s1 the results were RE007 growth inh -10%, NS1 function inh -23%, SARS PLpro yeast -2% and StopGo reporter -19%.
`Cc1ccc(NC(=S)NCc2ccccn2)cc1` gave RE007 growth inh -11%, Cruzain Triton 1.0%, Marburg entry inh -3%, NS1 function inh -14%, SARS PLpro yeast 29%, Cruzain inh noDet 5%, StopGo reporter 46%[activator] and Lassa entry inh 6%.
`COCc1nc2sc3c(c2c(=O)[nH]1)CCCC3` gave RE007 growth inh inconclusive, Cruzain Triton -1.3%, Marburg entry inh 17%, NS1 function inh -41%, SARS PLpro yeast -74%, Cruzain inh noDet 10%, StopGo reporter 12% and Lassa entry inh 13%.
`CC(C)N(C(=O)Cc1ccccc1[N+](=O)[O-])C(C)C` gave RE007 growth inh 6%, Marburg entry inh 5%[46.1 µM], NS1 function inh 3%, SARS PLpro yeast -4%, StopGo reporter 5% and Lassa entry inh 26%.
Screening Cc1cc(NC(=O)CSc2n[nH]c(-c3cccs3)n2)no1 returned RE007 growth inh 1%, Cruzain Triton 1.5%, Marburg entry inh 4%, NS1 function inh 5%, SARS PLpro yeast 6%, Cruzain inh noDet -6%, StopGo reporter 0% and Lassa entry inh 8%.
Screening CCOc1ccc(C2C(C#N)=C(N)Oc3cc(C)n(CCN(C)C)c(=O)c32)cc1OCC (stereo not drawn) returned RE007 growth inh 12%, Cruzain Triton 0.5%, Marburg entry inh 5%&-24%, NS1 function inh 4%, SARS PLpro yeast 1%, Cruzain inh noDet 2%, StopGo reporter 13% and Lassa entry inh -6%.
`Cc1ccc(C(=O)Nc2cccc3cccnc23)cc1Cl` gave Cruzain Triton 1.1%, Marburg entry inh inconclusive, Cruzain inh noDet 2%, StopGo reporter 58%[activator] and Lassa entry inh 25%[46.1 µM].
CN(CC(O)Cn1cnc2c1c(=O)n(C)c(=O)n2C)c1ccccc1 (stereo not drawn) was read as RE007 growth inh 8%, Marburg entry inh inconclusive, NS1 function inh 2%, SARS PLpro yeast 2%, StopGo reporter inconclusive and Lassa entry inh -5%.
For Cc1cc(O)ccc1N=Cc1c(C(F)(F)F)[nH][nH]c1=O the results were RE007 growth inh 6%, NS1 function inh -2%, SARS PLpro yeast 0% and StopGo reporter -13%.
Screening Cc1cc(NC(=O)CN2CCN(c3cccc(Cl)c3)CC2)no1 returned RE007 growth inh 18%, Marburg entry inh 27%[46.1 µM], SARS PLpro yeast -1%, StopGo reporter -14% and Lassa entry inh -18%.
Nc1nc(N2CCN(c3ccc(F)cc3)CC2)n[nH]1 was read as RE007 growth inh -4%, Marburg entry inh inconclusive, NS1 function inh -1%, SARS PLpro yeast 1%, StopGo reporter 3% and Lassa entry inh -6%.
Screening CC(C)OC(=O)C(C#N)c1nc2ccccc2nc1N1CCCC1 (stereo not drawn) returned RE007 growth inh -7%, Cruzain Triton -6.9%, Marburg entry inh 13%, NS1 function inh -1%, SARS PLpro yeast -9%, Cruzain inh noDet -2%, StopGo reporter 0% and Lassa entry inh -21%.
Screening CC(Sc1nc2ccccc2c(=O)[nH]1)C(=O)O (stereo not drawn) returned RE007 growth inh 11%, Cruzain Triton -0.6%, Marburg entry inh 6%, NS1 function inh 9%, SARS PLpro yeast -14%, Cruzain inh noDet -4%, StopGo reporter 6% and Lassa entry inh 28%[14.3 µM].
For CC(C)(C)c1csc(NNC(=O)c2ccc(Cl)cc2)n1 the results were RE007 growth inh -9%, Marburg entry inh inconclusive, NS1 function inh -39%, SARS PLpro yeast -4%, StopGo reporter 1% and Lassa entry inh inconclusive.
CCN(C(=O)c1cc(Cl)ccc1Cl)C1CCS(=O)(=O)C1 (stereo not drawn) was read as RE007 growth inh 1%, Marburg entry inh 2%[46.1 µM], SARS PLpro yeast 2%, StopGo reporter -14% and Lassa entry inh 14%.
`CCOC(=O)c1c(NC(C)=O)sc2c(OC)c(Br)ccc12` gave RE007 growth inh -13%, Cruzain Triton 0.0%, Marburg entry inh -14%, NS1 function inh -9%, SARS PLpro yeast -5%, Cruzain inh noDet -29% and Lassa entry inh 30%.
CN(NC(=O)C(C)(C)C)c1nc(-c2ccccc2)nnc1C(F)(F)F was read as RE007 growth inh -4%, Cruzain Triton 5.6%, Marburg entry inh 10%, NS1 function inh 5%, SARS PLpro yeast inconclusive, Cruzain inh noDet -2%, StopGo reporter -11% and Lassa entry inh 10%.
Screening CCN1c2cc(C)ccc2-n2cccc2C12CCN(C(=O)Nc1cc(OC)c(OC)c(OC)c1)CC2 returned Cruzain Triton -0.9%, Cruzain inh noDet inconclusive, StopGo reporter inconclusive and Lassa entry inh inconclusive.
COC(=O)c1sccc1NS(=O)(=O)c1ccccc1 was read as RE007 growth inh 3%, Marburg entry inh 1%[46.1 µM], NS1 function inh 9%, SARS PLpro yeast 11%, StopGo reporter 5% and Lassa entry inh -12%[46.1 µM].
For O=C(NC1CCN(C(=O)N2c3ccccc3Sc3ccccc32)CC1)c1ccccc1Cl the results were RE007 growth inh 2%, Cruzain Triton -6.1%, Marburg entry inh 16µM*, NS1 function inh 8%, SARS PLpro yeast -18%, Cruzain inh noDet -9% and Lassa entry inh -15%.
`COc1ccc(-c2nnn(CC(=O)N(Cc3cccs3)C(C)C(=O)NC3CCCC3)n2)cc1OC` (stereo not drawn) gave RE007 growth inh 9%, Cruzain Triton -2.0%, Marburg entry inh 0%, NS1 function inh -7%, SARS PLpro yeast 14%, Cruzain inh noDet inconclusive, StopGo reporter -9% and Lassa entry inh -17%.
O=C(CSc1nnc(-c2ccc(Cl)cc2)n1Cc1ccco1)Nc1ccc2c(c1)OCCO2 was read as RE007 growth inh -18%, Cruzain Triton -20%, Marburg entry inh inconclusive, NS1 function inh -38%, SARS PLpro yeast 10%, Cruzain inh noDet -28%, StopGo reporter inconclusive and Lassa entry inh -14%.
Screening CCNC(=S)N1CCN(Cc2ccc3c(c2)OCO3)CC1 returned RE007 growth inh 17%, NS1 function inh 2%, SARS PLpro yeast 1% and StopGo reporter 15%.
Screening O=C(C1=C[C@@H](C2CC2)C[C@@H](OCCCCO)O1)N1CCN(Cc2ccc3c(c2)OCO3)CC1 returned RE007 growth inh 2%, NS1 function inh -1%, SARS PLpro yeast -1% and StopGo reporter -13%.
Cc1[nH]n(-c2ccc([N+](=O)[O-])cc2)c(=O)c1/C=N/N1CCOCC1 was read as RE007 growth inh inconclusive, Marburg entry inh -1%[46.1 µM], NS1 function inh 0%, SARS PLpro yeast -3%, StopGo reporter 35%[activator] and Lassa entry inh 24%.
